ugtP null kill – compounds lethal to S. aureus RN4220 ugtP deletion mutant | AID 1259309 | 0.54% of 330,000 active | growth inhibition, % (concentration not given with the values) | OD600 growth, 16 h; some inactives read as strong as hits;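 active means z-score under -3 and OD600 up to 0.15 on both plates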;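 further: plate controls were untreated wells for no effect and antibiotic for full effect; wells of about 80 µL received 100 nL stock; the first replicate is given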
Mtb hypoxia inh – Mtb hypoxia fluorescent reporter inhibition; fluorescence inhibition, % (concentration not given with the values); 0.1% of 300,000 active; M. tuberculosis hypoxia-regulated fluorescent reporter, fluorescence;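 active means 35 to 45% if threefold the growth effect, above 45% if 1.5-fold the growth effect; inactive means the rest, general growth blockers included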;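 further: wells of about 50 µL received 100 nL stock; 0% = vehicle wells and 100% = reference inhibitor wells; whole bacteria with a GFP reporter of the hypoxia response; strong numbers were not always called active; many hits fall short of the cut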
BJeLR lethal – BJeLR cell viability loss | BJeLR (HRASV12) viability, CellTiter-Glo ATP luminescence, 48 h; reference of the scale not given here | inhibition, % (test concentration not listed) | 0.17% of 300,000 active | AID 1554;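 active means replicate mean above 50%; inconclusive means above 50% but judged a plate artefact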;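 further: 50 nL library stock added to about 25 µL; numbers are from one replicate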
Autofluor counter – counter-screen for toxin protease inhibitors: compound fluorescence | fluorescence intensity (no concentration beside the values) | compound autofluorescence counterscreen, microsphere flow cytometry; hits give high values | 3.1% of 360,000 active;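 active means at least 3 SD above the mean of all compounds, about 16000 in these data; inconclusive means too few beads counted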;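 further: 100 nL of 1 mM stock went into each well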
RN4220 kill – S. aureus RN4220 growth inhibition; OD600, 16 h; 0.33% of 330,000 active; inhibition, % (no concentration beside the values);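 active means z-score of -3 or lower and OD600 up to 0.18 on both plates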;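 further: plate controls were untreated cells for no effect and reference antibiotic for full effect; stock transfer was 100 nL into about 80 µL; one replicate is shown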
PrP UTR inh – inhibition of PrP 5' UTR reporter expression; AID 488862; 0.35% of 340,000 active; cell-based PrP 5' UTR mRNA reporter, plate reader; inhibition, % (no concentration beside the values);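 active means every replicate at 50% or more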;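 further: 0 = median of the neutral control wells; tested in H4 reporter cells; numbers are from one replicate; inactives centre near -14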
Mtb hypoxia inh growth – second read-out of Mtb hypoxia inh, no call of its own (marks repeat the call); growth inhibition, %; measured here: M. tuberculosis growth (absorbance);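 0% = vehicle and 100% = reference antibiotic; read after six days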
* marks the source's active call; other numbers are inactive results; ? = inconclusive; . = no result given.

| canonical_smiles | ugtP null kill | Mtb hypoxia inh | Mtb hypoxia inh growth | BJeLR lethal | Autofluor counter | RN4220 kill | PrP UTR inh |
| --- | --- | --- | --- | --- | --- | --- | --- |
| Cc1cc(NC(=O)CN2CCC(O)(c3cccc(F)c3)CC2)no1 | 2.4 | 15.4 | 10.1 | 1.7 | 5032 | 4.3 | -8.3 |
| Cc1ccc(NC(=O)CN(C)C(=O)c2cc3c(s2)CCCCC3)cc1 | 2.8 | 7.7 | 6.7 | . | 4080 | -0.1 | -10.6 |
| COc1ccc(-n2nc3ccccc3n2)cc1 | 11.2 | 5.3 | 1.3 | 0.2 | 6587 | 15.5 | -25.2 |
| S=C(Nc1ccc(Br)cc1)NC1CCN(Cc2ccccc2)CC1 | -1.3 | 12.7 | 0.0 | -1.1 | 5861 | -1.7 | -14.4 |
| Cc1ccc(C)c(NS(=O)(=O)c2csc(C(N)=O)c2)c1 | 6.8 | 7.4 | -3.5 | 3.9 | 3288 | 1.0 | -17.7 |
| CNc1c(C(=O)O)ccc2c1C(=O)c1ccccc1C2=O | 15.1 | 10.6 | -3.1 | 14.6 | 2460 | 11.4 | -2.1 |
| Cc1ccccc1NC(=O)Cn1nc(C)n2cccc2c1=O | 3.0 | 1.9 | 9.8 | -1.3 | 5719 | 0.4 | -5.0 |
| CCCOC(=O)CCNc1n[nH]c(=O)[nH]c1=O | -8.8 | 1.5 | 1.5 | -0.7 | 7062 | 6.5 | -16.8 |
| O=C(/C=C/c1ccccc1[N+](=O)[O-])NNC(=O)c1ccncc1 | -1.0 | 3.5 | 7.6 | . | 4390 | 1.6 | -0.1 |
| Cc1ccc2nc(SCC(=O)Nc3cccc(S(=O)(=O)N(C)C)c3)[nH]c2c1 | 1.8 | -2.3 | 13.0 | -0.2 | 2496 | 5.3 | -39.7 |
| COC(=O)c1ccccc1N=Nc1c(C)noc1C | 4.1 | -3.9 | -0.5 | 4.2 | 3984 | 8.0 | -7.0 |
| CCc1ccccc1NC(=O)CSc1nc2[nH]c(=O)cc(O)c2s1 | -4.8 | 2.3 | 0.2 | 6.1 | 4263 | -0.7 | -8.7 |
| COc1ccc(-c2nnc(CSc3nnc(-c4ccncc4)n3C3CCCCC3)o2)cc1OC | -4.2 | 5.5 | 11.4 | -0.1 | 19681* | 1.9 | -35.7 |
| CC1C2NC(=O)N(Cc3ccccc3)C1(C)Oc1ccccc12 (stereo not drawn) | 10.6 | 0.8 | -7.4 | -0.4 | 4527 | 4.8 | 1.3 |
| CCC(C)C1CNC(=S)N1CCc1cccc2ccccc12 (stereo not drawn) | -0.4 | 11.0 | 2.6 | . | . | 3.3 | . |
| CC(=O)Nc1ccc(NC(=O)COc2ccc(-c3ccccc3)cc2)cc1 | -1.3 | -0.7 | 3.4 | . | 5060 | 6.9 | -29.8 |
| CCOC(=O)c1ccc(C=C2c3ccccc3C(=O)N2c2ccccc2)cc1F | 11.2 | 5.3 | 4.9 | . | . | -4.7 | . |
| CCOC(=O)c1cc2c(=O)n3ccccc3nc2n(Cc2ccco2)c1=NC(=O)c1ccc(OC)cc1OC | 3.0 | 3.1 | -1.7 | 3.0 | 4621 | -13.2 | -2.1 |
| O=C(NC1CCCC1)C1CCCN(S(=O)(=O)c2ccc(F)cc2)C1 (stereo not drawn) | 1.0 | 4.5 | -0.3 | 1.6 | 3413 | 3.3 | -13.2 |
| COc1ccc(/C=N/n2c(=O)[nH]c3c([nH]c4ccc(Cl)cc43)c2=O)cc1CN1CCCCC1 | . | . | . | -9.2 | 3761 | . | -5.5 |
| CSc1ccc(Cl)c(C(=O)Nc2nccs2)c1 | -5.3 | -4.9 | 2.6 | 5.4 | 5348 | -2.6 | -12.2 |
| CC(OC(=O)c1snc(C(=O)NC2CCCCC2)c1N)C(=O)NC(C)(C)C (stereo not drawn) | 19.2 | 11.0 | 9.3 | 6.5 | 3586 | -1.6 | -16.6 |
| CNC[C@H]1Oc2c(NC(=O)C3CCCCC3)cccc2C(=O)N([C@H](C)CO)C[C@@H]1C | -9.3 | 3.9 | 13.2 | . | 3839 | -10.0 | -1.2 |
| CN(C(=O)CSc1nnc(-c2ccc(Cl)cc2)n1CC1CCCO1)C1CCS(=O)(=O)C1 (stereo not drawn) | 0.5 | 13.6 | 2.0 | 1.1 | 4279 | 3.9 | -13.5 |
| COc1cc(OC)c(CNC2CCCCCC2)cc1Br | 0.2 | 4.1 | 16.0 | 2.9 | 3245 | 2.0 | -19.7 |
| Cc1ccc2c(c1)N(CC(=O)NC1CCCC1)C(=O)C(C)O2 (stereo not drawn) | 3.8 | 17.8 | 4.6 | 5.9 | 6332 | 4.1 | -11.6 |
| COC(=O)C1=C(C(=O)OC)C2N(C)c3ccc(OC)cc3[C@@]23CC(C(=O)OC)N(C(=O)c2ccc(Br)cc2)C3=N1 (stereo partly drawn) | 0.9 | 5.8 | 8.1 | . | . | 5.4 | . |
| CCOC(=O)c1cccc(NC(=O)CNS(=O)(=O)c2cccs2)c1 | 0.6 | 5.6 | 10.6 | -8.4 | 8488 | -2.5 | -24.8 |
| CC1CCCN(CCC(=O)Nc2ccc(Br)cc2)C1 (stereo not drawn) | 4.4 | 3.1 | 1.8 | -1.7 | 5426 | -1.0 | -16.7 |
| CC1(C)C(=O)Nc2ccccc2N1C(=O)CN1C(=O)NC(CCc2ccccc2)C1=O (stereo not drawn) | -2.8 | 2.0 | 10.6 | -0.1 | 2115 | 1.6 | -4.0 |
| FC(F)(F)c1ccc(/C=N/N2CCN(Cc3ccccc3)CC2)cc1 | . | . | . | 4.7 | 1861 | . | -19.7 |
| O=S(=O)(c1ccccc1)c1nc(NC2CC2)sc1Cl | -6.1 | 0.8 | -14.7 | 2.3 | 5154 | 5.6 | -11.8 |
| O=C1CC(NCC2CCCO2)C(=O)N1c1ccc(F)cc1 (stereo not drawn) | 14.7 | 9.4 | 5.9 | 4.4 | 2533 | -0.6 | -13.0 |
| CC(CCCCC(=O)Nc1ccc(C(F)(F)F)cc1)NCCc1cnc[nH]1 (stereo not drawn) | 5.0 | -1.5 | 1.2 | 13.0 | . | 8.5 | . |
| CN(CC(=O)NCCc1ccc(F)cc1)Cc1cccs1 | 12.0 | 12.1 | 4.2 | 8.9 | 3318 | 7.7 | 0.3 |
| CC(=O)c1ccc(OCC(O)CN2CCN(S(=O)(=O)c3c(C)c(C)cc(C)c3C)CC2)cc1 (stereo not drawn) | . | . | . | -20.1 | 3575 | . | -14.5 |
| O=C(O)c1ccc(C=NNc2ccc(Cl)nn2)cc1 | 12.2 | -3.8 | 7.6 | . | . | 5.3 | . |
| CC(C)CN(C(=O)Cn1c(=O)cnc2ccccc21)C1CCS(=O)(=O)C1 (stereo not drawn) | 0.9 | -5.9 | 9.3 | -4.4 | 7548 | 2.9 | -10.0 |
| CCN(CC)c1ccc(C2C(C(=O)OC)=C(C)NC(C)=C2C(=O)OC)cc1 | 1.0 | 11.9 | 8.3 | -2.5 | 22496* | 3.9 | -33.1 |
| Cn1c(=O)c2c(SCC(=O)N3CCOCC3)nc(-c3ccccc3F)nc2n(C)c1=O | 3.3 | 2.2 | -1.9 | 0.4 | 6048 | 2.4 | -4.0 |
| CCOC(=O)/C=C1\Nc2ccccc2OC1=O | -7.4 | . | . | -15.8 | 2499 | 18.0 | -10.9 |
| CC1CCC(NC(=O)CSc2nncn2C)CC1 (stereo not drawn) | 0.6 | 5.0 | 9.4 | . | 3885 | 1.7 | -22.2 |
| CCOP(=O)(c1ccccc1)c1nc(-c2ccccc2C)oc1N1CCCCC1 (stereo not drawn) | -32.2 | . | . | 3.7 | . | -6.6 | . |
| CCc1n[nH]c(=S)n1N=Cc1ccc(N(C)c2ccccc2)cc1 | -6.3 | -4.2 | 4.8 | . | . | -5.9 | . |
| COc1ccc(-c2oc3ncnc(NCCCO)c3c2-c2ccc(OC)cc2)cc1 | 8.0 | 2.3 | -0.1 | -2.1 | 3880 | -2.7 | 10.8 |
| CCCn1c(CCC(=O)O)ccc1-c1ccc(OC)cc1 | 5.5 | 6.0 | 7.9 | -2.0 | 14216 | 6.1 | -1.3 |
| CC(C)=NNC1=NC(C)(C)Cc2ccccc21 | 1.6 | 8.3 | 3.5 | 4.6 | ? | 2.3 | -0.3 |
| COc1ccc(N2CCN(S(=O)(=O)CCNC(=O)c3ccc4c(c3)OCO4)CC2)cc1 | 4.9 | -5.5 | 0.5 | 4.4 | ? | 1.8 | -6.9 |

In a second layout: 4 of the compounds above.
Value order – ugtP null kill | Mtb hypoxia inh | Mtb hypoxia inh growth | BJeLR lethal | Autofluor counter | RN4220 kill | PrP UTR inh
COc1ccc(-c2oc3ncnc(NCCCO)c3c2-c2ccc(OC)cc2)cc1
  8.0 | 2.3 | -0.1 | -2.1 | 3880 | -2.7 | 10.8
CCCn1c(CCC(=O)O)ccc1-c1ccc(OC)cc1
  5.5 | 6.0 | 7.9 | -2.0 | 14216 | 6.1 | -1.3
CC(C)=NNC1=NC(C)(C)Cc2ccccc21
  1.6 | 8.3 | 3.5 | 4.6 | ? | 2.3 | -0.3
COc1ccc(N2CCN(S(=O)(=O)CCNC(=O)c3ccc4c(c3)OCO4)CC2)cc1
  4.9 | -5.5 | 0.5 | 4.4 | ? | 1.8 | -6.9

Carrying on:
| canonical_smiles | ugtP null kill | Mtb hypoxia inh | Mtb hypoxia inh growth | BJeLR lethal | Autofluor counter | RN4220 kill | PrP UTR inh |
| --- | --- | --- | --- | --- | --- | --- | --- |
| CC(Oc1ccc(Br)cc1)C(=O)NC1CCCCCC1 (stereo not drawn) | 5.3 | 14.5 | 4.8 | . | 2928 | 4.0 | -24.1 |
| O=C(N/N=C/c1ccc(O)c(O)c1)C1c2ccccc2Oc2ccccc21 | . | . | . | 1.9 | 2402 | . | -0.8 |
| CC(C)C(C(=O)Nc1ccc(S(N)(=O)=O)cc1)N1C(=O)c2ccccc2C1=O (stereo not drawn) | 6.6 | 12.4 | 5.0 | . | 4479 | 5.0 | -22.6 |
| Cc1ccc(C(=O)Nc2nnc(COc3ccccc3)s2)cc1 | 7.5 | 12.6 | 5.9 | 2.3 | 4262 | 5.4 | -23.2 |
| Cc1cccc(C(=O)NC(=S)NNC(=O)Cc2ccccc2)c1 | 19.0 | 5.4 | 9.2 | 3.3 | 1995 | 43.5 | -15.0 |
| CCn1cnc2sc(C(=O)Oc3ccc(Br)cc3)c(C)c2c1=O | -4.3 | 10.9 | 18.3 | -2.9 | 4230 | 2.7 | -71.3 |
| O=C(O)C1CCCCC1C(=O)Nc1ccc(S(=O)(=O)N2CCCCCC2)cc1 (stereo not drawn) | 7.7 | -0.6 | 0.6 | -13.1 | 3810 | 0.5 | -20.5 |
| Cc1ccc(C)c(NS(=O)(=O)c2ccc(-c3coc(C)n3)cc2)c1 | -7.7 | 2.8 | -6.9 | 9.7 | 4728 | 4.5 | -6.0 |
| O=C(NCc1ccccc1Cl)C1CCC(=O)N(CC2CCCCC2)C1 (stereo not drawn) | 2.4 | 2.1 | -1.5 | -5.4 | 5456 | -0.7 | -11.2 |
| CC1CCCC(NC(=O)COC(=O)/C=C/c2ccc3c(c2)OCO3)C1C (stereo not drawn) | -14.8 | -3.3 | -9.4 | 1.0 | 2473 | -6.0 | -16.9 |
| O=C(N/N=C1\CCCc2ccccc21)c1ccccc1[N+](=O)[O-] | . | . | . | -6.6 | 3278 | . | 0.4 |
| CCSc1n[nH]c(=S)s1 | 1.2 | 17.3 | 7.2 | 0.9 | 4469 | 4.3 | 76.6* |
| CC1=CC(C)(C)Nc2ccc(OC(=O)C(Cc3ccccc3)N3C(=O)c4ccccc4C3=O)cc21 (stereo not drawn) | 42.6 | . | . | 10.3 | 4091 | -5.7 | -3.5 |
| O=C(NCc1ccco1)/C(=C/c1cccc(C(F)(F)F)c1)c1nc2ccccc2[nH]1 | 3.1 | 3.8 | -1.8 | 7.4 | 2035 | 1.1 | -10.1 |
| NC(=O)CN1C(=O)C2C3c4ccccc4C(c4ccccc43)C2C1=O (stereo not drawn) | -1.4 | 4.9 | 3.7 | 3.4 | 2799 | 4.8 | -17.6 |
| O=C(Oc1c(CN2CCOCC2)cc(Cl)c2cccnc12)c1ccccc1Br | 2.2 | 1.8 | -9.8 | 9.3 | 4563 | 5.5 | . |
| O=C(CSc1nc2[nH]ncc2c(=O)[nH]1)NCCc1ccccc1 | -3.3 | 15.0 | 1.4 | -5.8 | 2343 | 4.7 | -29.2 |
| CC1CCCCN1Cc1c(O)ccc2c(=O)c(-c3ccc(Cl)cc3)coc12 (stereo not drawn) | 2.0 | 3.5 | -3.9 | 0.9 | 3962 | -0.3 | -22.4 |
| Cc1ccc(C(=O)OCC(=O)c2ccccc2)cc1 | 4.6 | -7.1 | -9.7 | -3.8 | 6465 | 7.3 | -43.4 |

High-throughput results as filed in PubChem BioAssay.
